rRNA inh HTS: inhibitors of bacterial rRNA selective over humanized ribosomes; E. coli WT GFP vs humanized-ribosome RFP mutants, fluorescence, 24 h; stronger effect = lower value; DMSO median 0, no signal -100; GFP signal change (wild-type ribosome), % (concentration not given with the values); 350,000 tested, 1.6% active;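 active = significant combined selectivity score with lowered wild-type GFP, culture density cut under 30%, mutant RFP and density less affected; inactive = any of these conditions unmet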; note: one replicate is shown; some compounds called inactive have numbers as strong as hits
rRNA inh HTS OD600: also measured in rRNA inh HTS; calls as there; OD600 change, %; measured here: OD600 growth;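 optical density of the mix in the first replicate; 0 = DMSO median and -100 = no signal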
rRNA inh HTS RFP: recorded beside rRNA inh HTS, whose call it bears; RFP signal change, %; measured here: RFP humanized mutant strains;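 first replicate; 0 = DMSO median and -100 = no signal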
Starred values were filed as active, the others as inactive; & = joins results of further samples. Only part of the results is shown; rates above refer to the full screens.

rRNA inh HTS	rRNA inh HTS OD600	rRNA inh HTS RFP	Compound
-2.5	6.8	-7.0	C[C@@H]1CCCCO[C@H](CN(C)C(=O)Nc2ccccc2)[C@H](C)CN([C@H](C)CO)C(=O)c2cc(NC(=O)Nc3ccc(C(F)(F)F)cc3)ccc2O1
0.8	4.8	-4.7	CC(C)CC#Cc1ccc([C@@H]2[C@H](CO)N3C(=O)CN(C(=O)CN4CCOCC4)C[C@@H]23)cc1
-33.9	-42.3	-13.9	C[C@@H]1CN([C@H](C)CO)C(=O)Cc2cc(N(C)C)ccc2O[C@H]1CN(C)Cc1ccc(Oc2ccccc2)cc1
5.0	-4.8	-0.7	CCC(=O)Nc1ccc2c(c1)C(=O)N(C)C[C@@H](OC)[C@H](C)CN(C(=O)CN1CCOCC1)[C@H](C)CO2
-4.8	6.5	5.1	O=C(c1ccc(F)cc1)N1CC(=O)N2[C@H](CO)[C@H](c3ccc(-c4ccccc4)cc3)[C@H]2C1
-0.2	-3.8	3.4	O=C(c1ccccc1)N1CC(=O)N2[C@H](CO)[C@@H](c3ccc(C4=CCCC4)cc3)[C@@H]2C1
-2.8	1.8	-1.3	O=C1C[C@@H](c2ccccc2)C(=O)N[C@@H](c2ccccc2)C/C=C\C[C@H](c2ccccc2)N1
-1.3&-5.1	6.2&4.6	0.1&-1.8	CN(C)C(=O)c1ccc(-c2ccc(C3[C@@H]4CN(S(=O)(=O)c5ccc(F)cc5)C[C@H]3N4)cc2)cc1 (stereo partly drawn)
-2.9	1.1	-5.4	CN(C)C(=O)c1cccc(-c2ccc3c(c2)[C@@H]2[C@@H](CCN2C(=O)C2CCCCC2)[C@H](CO)N3)c1
0.6	1.9	-1.5	CCCC(=O)Nc1ccc2c(c1)C(=O)N(C)C[C@H](OC)[C@@H](C)CN(C(=O)c1ccncc1)[C@@H](C)CO2
-2.1	-6.7	0.3	CCC(=O)N1CC(=O)N2[C@H](CO)[C@@H](c3ccc(-c4cccnc4)cc3)[C@@H]2C1
4.9	11.0	-0.2	C[C@H]1CN([C@@H](C)CO)C(=O)c2cc(NC(=O)Nc3ccc4c(c3)OCO4)ccc2O[C@@H]1CN(C)S(C)(=O)=O
3.6	5.1	-1.4	O=C(NC[C@@H]1N[C@@H](CO)[C@H]1c1ccccc1)C1CCC1
-0.5	-4.7	0.9	C[C@@H]1CCCCO[C@H](CN(C)C(=O)Nc2ccc(C(F)(F)F)cc2)[C@H](C)CN([C@H](C)CO)C(=O)c2cc(NC(=O)c3ccncc3)ccc2O1
1.3	2.5	0.2	CC(C)NC(=O)Nc1ccc2c(c1)CC(=O)N([C@H](C)CO)C[C@H](C)[C@@H](CN(C)S(=O)(=O)c1ccccc1)O2

The list continues:
rRNA inh HTS	rRNA inh HTS OD600	rRNA inh HTS RFP	Compound
4.3	17.2	0.1	CCCNC(=O)C[C@H]1CC[C@H]2[C@@H](COc3ccc(NC(=O)NCCC)cc3C(=O)N2C)O1
-1.3	-6.1	1.5	COc1cccc(S(=O)(=O)Nc2ccc3c(c2)OC[C@H](C)N(Cc2ccccc2F)C[C@@H](C)[C@H](OC)CN(C)C3=O)c1
-2.4	2.0	-0.3	CC(=O)N1CC2(C1)[C@@H](c1ccccc1)[C@@H](CO)N2Cc1ccccc1F
-2.3	1.7	-2.3	C[C@@H]1CN([C@H](C)CO)S(=O)(=O)c2ccc(-c3ccc(C#N)cc3)cc2O[C@@H]1CN(C)CC1CC1
-4.1	-43.8	21.0	COc1ccc(C#Cc2ccc([C@@H]3[C@@H](CO)N4C(=O)CN(C(=O)c5ccccc5)C[C@H]34)cc2)cc1
-1.6	-1.7	-1.7	O=C(Nc1ccccc1F)N1C[C@H]2[C@@H](c3ccccc31)[C@H](CO)N2C(=O)C1CC1
3.8	17.0	2.0	OC[C@@H]1[C@H](c2ccc(-c3ccncc3)cc2)[C@@H]2CN(Cc3ccccn3)CCCCN12
0.6	-31.2	13.0	O=C(c1ccncc1)N1CC(=O)N2[C@@H](CO)[C@@H](c3ccc(C#CCC4CCCC4)cc3)[C@@H]2C1
6.4	2.7	5.0	O=C(C1CCC1)N1CC(=O)N2[C@H](CO)[C@H](c3ccc(C#CCc4ccccc4)cc3)[C@@H]2C1
-2.8	1.3	0.6	C[C@H](CO)N1C[C@H](C)[C@H](CN(C)S(=O)(=O)c2ccccc2)OCCCC[C@H](C)Oc2ccc(NC(=O)C3CCCCC3)cc2C1=O
6.3&1.5	21.4&10.8	-0.4&-0.2	O=C(Nc1ccccc1F)N1[C@@H]2CNC[C@H]1C2c1ccc(-c2cccnc2)cc1 (stereo partly drawn)
-1.7	-2.2	-0.7	CC(C)NC(=O)N(C)C[C@@H]1Oc2ccc(N(C)C)cc2C(=O)N(C)C[C@H]1C
1.1	7.5	-2.5	C[C@H](O)C#Cc1ccc2c(c1)O[C@@H](CN(C)CC1CC1)[C@H](C)CN([C@@H](C)CO)S2(=O)=O
2.0	9.9	-2.2	COc1ccc2c3c(n(C)c2c1)[C@@H](CO)N(C)CC31CCN(C(=O)CN2CCOCC2)CC1
0.6	-3.3	-0.2	CC(=O)Nc1ccc2c(c1)CC(=O)N(C)C[C@H](C)[C@@H](CN(C)C(=O)NC(C)C)O2

Copied from the results shown, 3 compounds:
rRNA inh HTS	rRNA inh HTS OD600	rRNA inh HTS RFP	Compound
1.1	7.5	-2.5	C[C@H](O)C#Cc1ccc2c(c1)O[C@@H](CN(C)CC1CC1)[C@H](C)CN([C@@H](C)CO)S2(=O)=O
2.0	9.9	-2.2	COc1ccc2c3c(n(C)c2c1)[C@@H](CO)N(C)CC31CCN(C(=O)CN2CCOCC2)CC1
0.6	-3.3	-0.2	CC(=O)Nc1ccc2c(c1)CC(=O)N(C)C[C@H](C)[C@@H](CN(C)C(=O)NC(C)C)O2

By substructure: the entries above containing a CF3 group (2)
rRNA inh HTS	rRNA inh HTS OD600	rRNA inh HTS RFP	Compound
-2.5	6.8	-7.0	C[C@@H]1CCCCO[C@H](CN(C)C(=O)Nc2ccccc2)[C@H](C)CN([C@H](C)CO)C(=O)c2cc(NC(=O)Nc3ccc(C(F)(F)F)cc3)ccc2O1
-0.5	-4.7	0.9	C[C@@H]1CCCCO[C@H](CN(C)C(=O)Nc2ccc(C(F)(F)F)cc2)[C@H](C)CN([C@H](C)CO)C(=O)c2cc(NC(=O)c3ccncc3)ccc2O1

Remaining list, next part:
rRNA inh HTS	rRNA inh HTS OD600	rRNA inh HTS RFP	Compound
-9.0	-13.2	-2.1	COc1ccc2c3c(n(C)c2c1)[C@@H](CO)N(S(C)(=O)=O)CC31CCN(C(=O)Nc2cccc(F)c2)CC1
4.0	-7.6	2.2	CC(C)C#Cc1ccc([C@@H]2[C@@H](CO)N3C(=O)CN(C(=O)c4ccc5c(c4)OCO5)C[C@H]23)cc1
4.1	8.7	-3.1	C[C@@H]1CCCCO[C@@H](CN(C)C)[C@H](C)CN([C@@H](C)CO)C(=O)c2cc(NC(=O)CCCN(C)C)ccc2O1
0.0	-8.5	31.1	O=C(c1ccc2c(c1)OCO2)N1CC(=O)N2[C@@H](CO)[C@@H](c3ccc(C#Cc4ccccc4)cc3)[C@@H]2C1
-0.2	-2.8	-0.1	C/C=C/c1ccc([C@@H]2[C@H](CO)N[C@H]2CNC(=O)c2ccccc2F)cc1
-0.3	-5.8	5.3	COc1cccc(CN2[C@@H](CO)[C@@H](c3ccccc3)C23CN(C(=O)C2CCCC2)C3)c1
0.5	-2.1	-1.1	COc1ccc(C[C@@H]2CCn3nncc3COC[C@@H](c3ccccc3)NC2=O)cc1
2.4	8.7	-4.0	CO[C@H]1CC[C@@H]2CCN(C)C(=O)[C@H](C)N(C)C(=O)c3cccc(C#N)c3OC[C@H]1O2
-6.0	-10.9	-0.2	COc1cccc(NC(=O)C[C@H]2CC[C@H]3[C@@H](COc4ccc(NC(=O)C5CCC5)cc4C(=O)N3C)O2)c1
-0.8	8.9	0.1	Cc1noc(C)c1S(=O)(=O)N(C)C[C@@H]1OCCCC[C@@H](C)Oc2ccc(N(C)C)cc2C(=O)N([C@H](C)CO)C[C@H]1C
-0.6	-6.0	1.9	CC(C)C#Cc1ccc([C@H]2[C@H]3CN(C(=O)c4ccc5c(c4)OCO5)CC(=O)N3[C@H]2CO)cc1
3.2	2.8	-1.0	CC(C)CC#Cc1ccc([C@H]2[C@H]3CN(S(=O)(=O)c4cccc(F)c4)CC(=O)N3[C@H]2CO)cc1
-3.3	-16.8	-1.3	Cc1ccc(NC(=O)C[C@H]2CC[C@H]3[C@@H](COc4ccc(NC(=O)c5ccc(F)cc5)cc4C(=O)N3C)O2)cc1
-1.1	4.1	0.2	COc1ccc(S(=O)(=O)N(C)C[C@H]2OCCCC[C@@H](C)Oc3ccc(NC(=O)C4CCCCC4)cc3C(=O)N([C@@H](C)CO)C[C@H]2C)cc1
-8.5	-14.6	1.8	CCCNC(=O)N1CC2(CCN(S(=O)(=O)c3ccccc3)CC2)c2c(n(C)c3cc(OC)ccc23)[C@H]1CO

(list continues)
rRNA inh HTS	rRNA inh HTS OD600	rRNA inh HTS RFP	Compound
2.0&1.1	1.8&4.3	1.5&-2.6	c1cc(-c2ccc(C3[C@H]4CNC[C@@H]3N4Cc3nccs3)cc2)ccn1 (stereo partly drawn)
-1.9	-7.6	-2.8	CCC(=O)N1CC(=O)N2[C@H](CO)[C@@H](c3ccc(-c4ccc(C#N)cc4)cc3)[C@@H]2C1
0.6	-2.1	-0.3	CC(=O)N1[C@@H]2c3cccc(=O)n3C[C@H]1[C@H](CO)[C@H]2C(=O)N[C@@H](C)c1ccccc1
-4.9	-2.9	2.0	COc1ccc2c3c(n(C)c2c1)[C@@H](CO)N(CC1CC1)CC31CN(C(=O)c2ccc3c(c2)OCO3)C1
3.1	5.1	-3.6	CO[C@@H]1CN(C)C(=O)c2cc(NC(=O)NC(C)C)ccc2OC[C@H](C)NC[C@H]1C
1.3	0.5	0.5	C[C@@H]1CN([C@@H](C)CO)C(=O)c2cc(NC(=O)Cc3ccccc3)ccc2O[C@@H]1CN(C)S(C)(=O)=O
-1.0	5.4	0.9	CNC[C@H]1Oc2ccc(NC(=O)NC3CCCCC3)cc2CC(=O)N([C@@H](C)CO)C[C@@H]1C
0.6&3.0	2.4&18.2	0.7&1.8	COc1cccc(NC(=O)N2[C@@H]3CNC[C@H]2C3c2ccc(-c3cccnc3)cc2)c1 (stereo partly drawn)
4.4	-9.8	1.7	O=C(C1CC1)N1CC(=O)N2[C@H](C1)[C@H](c1ccc(C#CC3CCCC3)cc1)[C@@H]2CO
-2.4	-4.4	-0.1	CCS(=O)(=O)N1CC2(CN(C(=O)NC(C)C)[C@@H](CO)c3c2c2ccc(OC)cc2n3C)C1
0.6	0.3	-1.0	O=C(C[C@@H]1CC[C@H](NS(=O)(=O)c2ccc(F)cc2)[C@H](CO)O1)NCCN1CCCCC1
-2.0	-0.5	-1.0	C[C@H]1CC=CC[C@H](c2cccc(Cl)c2)NC(=O)[C@@H](Cc2ccccc2)N(C)C(=O)c2ccccc2O1 (mixture of isomers)
-1.4	-8.4	-0.5	C[C@@H]1CN([C@@H](C)CO)C(=O)c2cccc(NC(=O)CCCCCC(=O)Nc3ccccc3N)c2O[C@H]1CN(C)Cc1ccc(Oc2ccccc2)cc1
-4.2	-28.1	20.0	O=C(Nc1cc(F)ccc1F)N1CC(=O)N2[C@H](CO)[C@@H](c3ccc(-c4ccccc4)cc3)[C@H]2C1
-4.4	-8.6	1.6	C[C@@H]1CN([C@@H](C)CO)C(=O)Cc2cc(NS(=O)(=O)c3ccc(Cl)cc3)ccc2O[C@@H]1CN(C)C(=O)Nc1ccc2c(c1)OCO2

Remaining list, next part:
rRNA inh HTS	rRNA inh HTS OD600	rRNA inh HTS RFP	Compound
0.7	3.5	-0.3	CNC[C@H]1Oc2ccc(N(C)C)cc2CC(=O)N(C)C[C@@H]1C
-1.3	1.6	-4.2	COCCNC(=O)[C@@H]1[C@@H](CO)[C@@H]2Cn3c(ccc(C4=CCCCC4)c3=O)[C@H]1N2C(=O)C1CCCC1
-2.6	6.1	-2.1	O=C(C1CCCCC1)N1CC(=O)N2[C@H](CO)[C@H](c3ccc(Br)cc3)[C@H]2C1
-55.3	-78.2	-13.3	O=C(Nc1ccccc1F)N1CCCCN2[C@@H](CO)[C@@H](c3ccc(/C=C/c4ccccc4)cc3)[C@@H]2C1
0.4	-2.0	-0.9	C[C@@H]1CN([C@H](C)CO)C(=O)c2ccccc2-c2ccccc2CO[C@H]1CN(C)C(=O)c1cc(Cl)cc(Cl)c1
0.2	-1.5	3.2	COc1cccc(NC(=O)C[C@H]2CC[C@H]3[C@H](COc4ccc(NC(=O)C5CCC5)cc4C(=O)N3C)O2)c1
-0.5	0.5	0.5	C[C@H]1CCCCO[C@H](CN(C)C(=O)Nc2ccccc2)[C@@H](C)CN([C@@H](C)CO)C(=O)c2cc(NC(=O)CCCN(C)C)ccc2O1
-0.9	-3.1	-0.9	COc1ccccc1C(=O)Nc1ccc2c(c1)C(=O)N(C)C[C@@H](OC)[C@H](C)CN(CC1CC1)[C@@H](C)CO2
1.3	-2.1	-0.7	O=C(c1ccncc1)N1CC(=O)N2[C@H](CO)[C@H](c3ccc(-c4ccccc4)cc3)[C@H]2C1
-2.1	0.2	-2.8	Cc1ccccc1S(=O)(=O)N1CC[C@@H]2[C@@H](CO)N(C)c3ccc(-c4ccc(F)cc4)cc3[C@@H]21
1.8	-13.2	27.9	COc1cccc(C#Cc2ccc([C@H]3[C@@H](CO)N4C(=O)CN(C(=O)Cc5ccccc5)C[C@@H]34)cc2)c1

Screening data deposited in PubChem BioAssay by Broad Institute.
